TAR Tat displ = HIV-1 TAR-Tat binding disruption | AID 1259389 | HIV-1 TAR RNA, Tat peptide displacement FRET; stronger effect = higher value | z-score (no concentration beside the values) | actives 0.6% (n = 100,000);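 also: score is relative to mean and SD of negative controls; some compounds called inactive have numbers as strong as hits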
CDC25B CDK2 inh = human CDC25B-CDK2/CyclinA binding inhibition | P30305+P24941 | HTRF CDC25B-CDK2/CyclinA binding, anti-His/anti-Flag; stronger effect = higher value | z-score (concentration not given with the values) | actives 0.72% (n = 94,000) | AID 1259370;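 also: score is relative to mean and SD of negative controls; strong numbers were not always called active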
Active calls of the source: *; / = no result given.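 The calls were made as follows: active = z-score from 3 up in half or more of its runs; inactive = the rest.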

nr	SMILES	TAR Tat displ	CDC25B CDK2 inh
1	COc1ccccc1N1CCN(c2ccc(=O)n(Cc3ccc(C(=O)O)o3)n2)CC1	2.1	-1
2	COc1ccccc1CNCCCCCCNCCCCCCCCNCCCCCCNCc1ccccc1OC	/	-0.2
3	Cc1ccc(C)c(CN2CCCN(C(=O)c3sc4nc5n(c(=O)c4c3C)CCCCC5)C2)c1	1.6	/
4	Cc1ccc(S(=O)(=O)[C@H]2CS(=O)(=O)C[C@@H]2NCc2ccco2)cc1	-2.3	0.27
5	CC(C)CNC(=S)NCc1ccco1	/	-0.4
6	CCCCN1C(=O)C(O)(CC(=O)c2ccc(C(C)(C)C)cc2)c2ccccc21 (configuration not stated)	/	0
7	Cc1ccc(NC(=O)CC(C)CC(=O)O)cc1 (configuration not stated)	/	-0.74
8	Cn1c(=O)oc2cc(S(=O)(=O)NC3CCCCCC3)ccc21	/	-0.6
9	COc1cccc(-c2nnc(SCc3ccc(Cl)cc3)o2)c1	1.3	0.52
10	COC(=O)CSc1nc2ccc(NC(=O)CSc3nnnn3C)cc2s1	/	-1.7
11	CC(C)CC(Nc1ncnc2c1oc1ccccc12)C(=O)O (configuration not stated)	0.44	1.8
12	Cc1nnsc1C(=O)Oc1ccccc1Br	1.4	-1.1
13	OCCNc1nc(-c2ccc(Cl)cc2)nc2ccccc12	/	-1.3
14	CCC(C)NC(=O)C1CCN(C(=O)c2cc3sccc3n2C)CC1 (configuration not stated)	/	-1.6
15	CCOC(=O)c1cnc(SC)nc1NC(=O)Nc1ccc2c(c1)OCCO2	1.4	/
16	CN1C(=O)CSc2ccc(NC(=O)NCCC3=CCCCC3)cc21	1.4	-1.5
17	Cn1c(NCCN(CCO)CCCc2ccc([N+](=O)[O-])cc2)cc(=O)n(C)c1=O	-0.63	/
18	O=C(NCc1cccs1)C1CCN(S(=O)(=O)c2ccc3[nH]c4c(c3c2)CCCCC4)CC1	0.34	/
19	COc1ccc(-c2nc3ccc(C)cc3[nH]2)cc1OC	2.6	0.22
20	CC1(C)CC(=O)c2c(Nc3ccccc3)nn(-c3ccccc3)c2C1	0.23	-1.4
21	Cc1nc(-c2csc(S(=O)(=O)NCc3ccc4c(c3)OCO4)c2)no1	-0.72	/
22	Cc1nnsc1C(=O)Nc1c(C(=O)Nc2ccccc2)oc2ccccc12	-0.21	1
23	Cc1ncc(-c2ccc(S(=O)(=O)N3CCN(C(c4ccccc4)c4ccccc4)CC3)cc2)o1	1.6	/
24	CC1CCC2(CC1)NC(=S)N(c1ccccc1)N2 (configuration not stated)	/	-0.11
25	CCn1c(CSc2nc(C)cc(=O)[nH]2)nc2ccccc21	-2.6	-1.2
26	Cc1ccc(S(=O)(=O)c2nc(S(C)(=O)=O)sc2NCCCN2CCOCC2)cc1	-2.1	-1.5
27	Cc1ccccc1CSc1nc(=O)c2c(n1C)NC(=O)CC2c1ccc2c(c1)OCCO2 (configuration not stated)	0.76	-0.38
28	O=C(NCc1ccco1)c1ccc(CS(=O)c2ccccc2Cl)o1 (configuration not stated)	0.72	/
29	O=C(NCCc1ccco1)NC1COc2ccccc2C1 (configuration not stated)	1.5	/
30	C=CCN1C(=O)C2(/C(=C(/O)c3ccc(C)c(F)c3)C(=O)C(=O)N2CCCN(C)C)c2ccccc21 (configuration not stated)	5.1	-2.5

In another format: 17 of the compounds above
Each structure is followed by: TAR Tat displ | CDC25B CDK2 inh
(5) CC(C)CNC(=S)NCc1ccco1
 : / | -0.4
(6) CCCCN1C(=O)C(O)(CC(=O)c2ccc(C(C)(C)C)cc2)c2ccccc21 (configuration not stated)
 : / | 0
(7) Cc1ccc(NC(=O)CC(C)CC(=O)O)cc1 (configuration not stated)
 : / | -0.74
(8) Cn1c(=O)oc2cc(S(=O)(=O)NC3CCCCCC3)ccc21
 : / | -0.6
(9) COc1cccc(-c2nnc(SCc3ccc(Cl)cc3)o2)c1
 : 1.3 | 0.52
(10) COC(=O)CSc1nc2ccc(NC(=O)CSc3nnnn3C)cc2s1
 : / | -1.7
(11) CC(C)CC(Nc1ncnc2c1oc1ccccc12)C(=O)O (configuration not stated)
 : 0.44 | 1.8
(12) Cc1nnsc1C(=O)Oc1ccccc1Br
 : 1.4 | -1.1
(13) OCCNc1nc(-c2ccc(Cl)cc2)nc2ccccc12
 : / | -1.3
(14) CCC(C)NC(=O)C1CCN(C(=O)c2cc3sccc3n2C)CC1 (configuration not stated)
 : / | -1.6
(15) CCOC(=O)c1cnc(SC)nc1NC(=O)Nc1ccc2c(c1)OCCO2
 : 1.4 | /
(16) CN1C(=O)CSc2ccc(NC(=O)NCCC3=CCCCC3)cc21
 : 1.4 | -1.5
(17) Cn1c(NCCN(CCO)CCCc2ccc([N+](=O)[O-])cc2)cc(=O)n(C)c1=O
 : -0.63 | /
(18) O=C(NCc1cccs1)C1CCN(S(=O)(=O)c2ccc3[nH]c4c(c3c2)CCCCC4)CC1
 : 0.34 | /
(19) COc1ccc(-c2nc3ccc(C)cc3[nH]2)cc1OC
 : 2.6 | 0.22
(20) CC1(C)CC(=O)c2c(Nc3ccccc3)nn(-c3ccccc3)c2C1
 : 0.23 | -1.4
(21) Cc1nc(-c2csc(S(=O)(=O)NCc3ccc4c(c3)OCO4)c2)no1
 : -0.72 | /

The listing continues:
nr	SMILES	TAR Tat displ	CDC25B CDK2 inh
31	CCN1CCN(S(=O)(=O)c2ccc3c(c2)c(=O)n(CC(=O)N2CCCC2)c(=O)n3C)CC1	1.8	/
32	Clc1ccccc1C(c1ccccc1)(c1ccccc1)n1ccnc1	1.3	-0.79
33	CC(C)(C)c1c[n+](-c2ccccc2)c2n1CCS2	0.53	-3.2
34	CC(C)Cc1nc2cccnc2n1C1CCN(S(=O)(=O)c2cccc3nsnc23)CC1	0.91	/
35	Cn1c(=O)c(=O)n(C)c2cc(NS(=O)(=O)c3ccc(Br)cc3)c(Cl)cc21	2.8	-2.2
36	O=C(Nc1c(C(=O)c2ccc(F)cc2)oc2ccccc12)c1cccs1	1.5	2.4
37	CCOc1ccc(N2CC(c3nc4ccccc4n3CC(C)C)CC2=O)cc1 (configuration not stated)	-0.15	-0.31
38	COc1ccc(NS(=O)(=O)c2ccc3c(c2)NC(=O)CO3)cc1Cl	1.9	/
39	CC(=O)Oc1ccc2nc(-c3cccc(Br)c3)oc(=O)c2c1	/	0.19
40	NC(=O)C(c1ccccc1)C1CCCC1 (configuration not stated)	/	-1.4
41	COc1cccc(C2C3=C(CCCC3=O)Nc3ncnn32)c1 (configuration not stated)	-0.02	-1.7
42	CC(CC(=O)NC1CCCCC1)CC1=NS(=O)(=O)c2ccccc2N1 (configuration not stated)	-1.1	/
43	CCOC(=O)Nc1c(C(=O)OCC)[nH]c2ccc(OC)cc12	0.97	-0.55
44	COC(=O)c1ccc(C(=O)OC)c(NC(=O)COCC(=O)O)c1	/	-1.4
45	CCN1CCN(c2nc(N3CCN(CC)CC3)c3cnn(C)c3n2)CC1	1.3	/
46	Cn1c(=O)c2c(-c3ccccc3Br)n(Cc3ccco3)cc2n(C)c1=O	0.05	-1.1
47	O=C(NCCCN1CCCC1=O)c1[nH]c2ccccc2c1Sc1ccc(Cl)cc1	2.9	0.59
48	CC12CN3CC(C)(CN(C1)C3c1c(O)ccc3ccccc13)C2 (configuration not stated)	1.6	-2.7
49	CNC(=S)Nc1cscc1S(=O)(=O)c1ccc(Cl)cc1	/	-0.92
50	COc1cc(-c2ccc(NC(=O)c3ccc(F)cc3)c(OC)c2)ccc1NC(=O)c1ccc(F)cc1	/	-2.9
51	Cc1ccc(NS(=O)(=O)C2CCS(=O)(=O)C2)cc1 (configuration not stated)	1.2	1.2
52	CCCOC(=O)CCCN1C(=O)S/C(=C/c2ccc(OC)cc2)C1=S	0.44	-1.7
53	CCOC1CC(C)(C)Oc2ccc3oc(C(=O)N4CCc5ccccc5C4)c(C)c3c21 (configuration not stated)	0.91	-2.9
54	CC1C(=O)N2CCCc3cc(S(=O)(=O)Nc4ccc5c(c4)OCO5)cc1c32 (configuration not stated)	2.1	/
55	CC(=O)CSC(=S)N1CCSCC1	/	-1.8
56	CCOC(=O)C1CCCN(c2c(NCCN3CCCCC3CC)c(=O)c2=O)C1 (configuration not stated)	-0.8	-1.2
57	Cc1ccc2nc(SCC(=O)N(C(C)C)C(C)C)[nH]c2c1	0.48	-0.28
58	Cc1cc(C)nc(-n2nc(C)c3c2NC(=O)CC3c2cccc3ccccc23)n1 (configuration not stated)	0.84	-1.2
59	COc1ccccc1C1CC(=O)N2CN(Cc3ccco3)CSC2=C1C#N (configuration not stated)	-0.77	2.4
60	O=C(c1ccccc1C(F)(F)F)N1CCCN(CCc2ccccc2)CC1	/	-0.12

The results go on.
nr	SMILES	TAR Tat displ	CDC25B CDK2 inh
61	COCCNS(=O)(=O)c1ccc2c(c1)CC(C)N2C(=O)C1CCC1 (configuration not stated)	-1.4	/
62	O/N=C1/CCCc2nnc3c(c21)CCCC3	/	-0.57
63	C=CCNC(=O)C1CCN(c2ccccc2)C1=O (configuration not stated)	-0.5	/
64	CC1=C(C(=O)OCc2ccccc2)C(c2ccccc2F)NC(=O)N1 (configuration not stated)	/	-0.89
65	N#Cc1nc(COc2cccc(Cl)c2)oc1N1CCCCC1	2.5	3.4
66	COc1ccc(Nc2c(-c3ccc(Cl)cc3)c(=O)c2=O)cc1Cl	-0.17	/
67	O=C(O)C1C2C=CC(O2)C1C(=O)NCc1cccnc1 (configuration not stated)	0.14	-1.3
68	O=S(=O)(Cc1c[nH]c2ccccc12)c1ccccc1	0.04	-1.1
69	Cc1ccc2nc3c(cc2c1)CCN3C(=O)C(C)(C)C	-0.88	2.1
70	O=C(NCCN1CCOCC1)c1noc2c1CCCC2	0.47	/
71	CN(Cc1ccco1)C(=O)CN1C(=O)CSc2ccc(S(=O)(=O)N3CCOCC3)cc21	-0.69	/
72	CCOC(=O)C1CCN(C(=O)C2CCCN(c3ncnc4c3nc3n4CCCCC3)C2)CC1 (configuration not stated)	0.64	/
73	CC1CCN(C(=O)CSc2nc3c(cnn3-c3ccc(F)cc3)c(=O)[nH]2)CC1	/	-0.26
74	CCc1nn2c(=O)c(S(=O)(=O)NCc3ccccc3)c(C)nc2s1	-0.32	-0.71
75	Cc1[nH]c2ccc(Cl)cc2c(=O)c1CN1CC2(C)CC1CC(C)(C)C2 (configuration not stated)	/	0.51
76	Cc1ccc(Cc2c(C)nc(N3CCCC3)[nH]c2=O)cc1	/	0.61
77	Fc1cccc(CNCc2cccn2-c2nnc(N3CCOCC3)s2)c1	-1.2	/
78	IC12CCCC(c3ccccc3)(CC1)C2 (configuration not stated)	/	-1.2
79	CCOc1cc(CNc2ncnc3nc[nH]c23)ccc1OC	/	0.57
80	CCN(c1ccccc1)c1nc2ccccc2n2c(C)nnc12	1.9	0
81	C=CCn1c(N)c(C(=O)Nc2ccccc2OC)sc1=S	-0.25	/
82	COc1ccc(Nc2ccc3nnc(-c4ccc(Br)cc4)n3n2)cc1	/	-0.99
83	CC(C)c1c(C(=O)Nc2ccccc2)c(-c2ccccc2)c(-c2ccc(F)cc2)n1CC[C@@H](O)C[C@@H](O)CC(=O)O	/	-0.43
84	COCCNC(=O)C(=O)Nc1ccc2nc3n(c(=O)c2c1)CCCCC3	/	0.65
85	CC1CCN(CC2CCN(S(=O)(=O)c3ccc4[nH]c(=O)oc4c3)CC2)CC1	1	/
86	O=C1NC(c2c(F)cccc2Cl)C(C(=O)c2cccs2)C(O)(C(F)(F)F)N1 (configuration not stated)	/	-0.94
87	CCOC(=O)C1CCN(S(=O)(=O)c2ccc(N3CCCCS3(=O)=O)cc2)CC1	-0.39	/
88	O=C(NCCN1CCOCC1)c1cnn(-c2ccc(F)cc2F)c1C1CCNCC1	1.2	/
89	CCOc1ccc(C2C3=C(CCCC3=O)Nc3nc(SCC)nn32)cc1OC (configuration not stated)	1.5	-2
90	O=C(CSc1nc(-c2ccccc2F)nc2cc(=O)[nH]n12)Nc1cc(F)ccc1F	1	/

The results go on.
nr	SMILES	TAR Tat displ	CDC25B CDK2 inh
91	O=C(C1CCC(CNc2c(N3CCOCC3)c(=O)c2=O)CC1)N1CCCCC1 (configuration not stated)	1.8	-1
92	CS(=O)(=O)N1CC(=O)Nc2ccccc21	-0.3	0.6
93	Cc1nnc(N2C(=O)C(O)=C(C(=O)c3cccs3)C2c2ccccc2)s1 (configuration not stated)	-0.64	-0.05
94	Cc1c2cnn(-c3ccccc3)c(=O)c2c(C)n1CCCC(=O)NC(C)(C)C	-0.12	2.1
95	O=C(Nc1ccccn1)c1cc(-c2ccc3c(c2)OCCO3)on1	1.1	0.06
96	COc1ccc(C(=O)CSc2nc3c(cc2C#N)CCCC3)cc1	1.1	-2.4
97	Oc1c(C(c2cccs2)N2CCOCC2)cc(Cl)c2cccnc12 (configuration not stated)	0.25	/
98	O=S1(=O)NC(=NCCCCO)c2ccccc21	2	-1.2
99	Cc1ccc(CN2C(=O)C(O)(CC(=O)c3ccc(Br)s3)c3ccccc32)cc1 (configuration not stated)	/	-3
100	O=C(CCC(=O)N1c2ccccc2NC2=C(C(=O)CCC2)C1c1ccco1)NCc1ccco1 (configuration not stated)	1.1	/
101	CCc1ccc(-n2ccc(=O)c(C(=O)Nc3sc4c(c3C(=O)NCc3ccco3)CCC4)n2)cc1	1.2	-2.1
102	Fc1ccc(-c2cn3c(n2)Cc2ccccc2C3)cc1	/	18*
103	O=C1CCCCCC1C1(O)C(=O)Nc2ccccc21 (configuration not stated)	/	-1.6
104	O=C(O)CCSC1CC(=O)N(c2ccccc2)C1=O (configuration not stated)	/	-1.4

Source: PubChem BioAssay (Center for Chemical Genomics, University of Michigan)
